# AID504770 – growth inhibitors of E. coli YBA685 in a screen for V. cholerae RctB (chromosome II replication) inhibitors | E. coli YBA685 rctB-dependent plasmid, OD600 growth, 3 h; active compounds read low | hit rate 0.27% among 130,000 | z-score (concentration not given with the values) | AID 504770;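 active means z-score under -2 on both plates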;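 further: wells of about 30 µL received 100 nL stock; score is relative to mean and SD of the test wells; the first replicate is given; strong numbers were not always called active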
# CapD inh – inhibitors of Bacillus anthracis CapD enzyme. purified CapD enzyme, fluorescence intensity read-out; active compounds read low; some hits fall short of the stated cut. z-score (no concentration beside the values). hit rate 0.23% among 140,000. AID 492967;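 active means z-score under -4 in either of two replicates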;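 further: stock transfer was 100 nL into about 40 µL; score is relative to mean and spread of the plate; one replicate is shown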
# The depositor's hits bear a star; · = not tested or not shown; & = joins results of further samples.
# Every second line gives: AID504770	CapD inh
N#Cc1ccccc1CSc1nc2ccccc2n1-c1ccccc1
→ 0.4	·
CC(=O)NC1(C(F)(F)F)C(=O)Nc2c1c(=O)n(C)c(=O)n2C (stereo not given)
→ 0.1	-0.24
O=C(O)CSC1CCC(=O)N1 (stereo not given)
→ 0.45	-0.15
CC(C)c1ccc(C2Oc3ccccc3C3CC(c4ccc(Br)cc4)=NN32)cc1 (stereo not given)
→ ·	0.53
O=c1c(Cc2ccc(Cl)cc2Cl)c(O)ccn1CC(F)(F)F
→ ·	-0.32
COc1ccc(N/C(N)=N/c2nc(C)cc(=O)[nH]2)cc1
→ -0.4	0.09
O=C1c2ccccc2NC(c2ccc(OCc3ccccc3)cc2)N1c1ccc(Cl)c(Cl)c1 (stereo not given)
→ ·	28
Cc1ccc(OCCNC(=O)c2ccc(C)o2)cc1
→ 0.1	·
Oc1ccccc1Oc1ccccc1
→ -0.85	-0.73
Cc1ccc2c(c1)CCCN2C(=O)c1csc(C)c1
→ -0.05	0.49
Cn1c(=O)c(-c2cc(-c3ccccc3C(=O)NN)n(-c3ccccc3)n2)c(O)c2ccccc21
→ -0.9	-0.015
CCOC(=O)C1CCN(C(=O)c2cc3c(-c4ccc(OC)c(OC)c4)nn(C)c3s2)CC1
→ 0.85	-0.23
CN(C)c1ccc(P(=O)(OC2CCCCC2)C(O)c2ccccc2)cc1 (stereo not given)
→ -1.2	-0.42
FC(F)(F)c1cccc(N=Cc2ccccc2)c1
→ 1.1	-2.5
Oc1oc(C=Nc2ccc(OC(F)(F)F)cc2)c2ccccc12
→ -2.3	-0.035
Cc1ccc(-c2cc3cc(C)c(C#N)c(N4CCCCCC4)n3c2)cc1
→ -1.1	0.9
CNc1cc(C(F)(F)F)c(C(=O)Nc2ccc(Cl)cc2Cl)cn1
→ -0.25	72
CCC1C(=O)NCCN1C(=O)c1ccc(Br)o1 (stereo not given)
→ -0.45	-0.13
O=C1CSC(=NC2CCCC2)N1
→ 0.05	1.2
COC(=O)c1cccc(N2C(=O)/C(=C/c3ccc(-c4cc(Cl)ccc4Cl)o3)C=C2c2ccccc2)c1
→ ·	0.23

# The results go on:
# Every second line gives: AID504770	CapD inh
NCC(CC(=O)O)c1ccc(Cl)cc1 (stereo not given)
→ 0.35	0.54&1.6
Cc1ccccc1NC(=O)Cc1nc(Cn2cc(S(=O)(=O)N3CCCC3)ccc2=O)cs1
→ 0.2	·
CCN(CC)S(=O)(=O)c1ccc(N2CCc3cc(OC)c(OC)cc3C2)nc1
→ -0.65	·
O=C(CSc1nc2ccccc2c(=O)n1CCC(=O)N1CCN(c2ccccc2)CC1)Nc1ccccc1Cl
→ ·	-0.24
Cn1nc(-c2ccccc2)c(/C=N/O)c1Sc1cccc(C(F)(F)F)c1
→ ·	-0.78
O=C(Nc1ccc(N2S(=O)(=O)c3ccccc3S2(=O)=O)cc1)c1cccs1
→ ·	-0.85
N#Cc1ccc(-c2csc(-c3ccc(C(F)(F)F)cc3)n2)cc1
→ -0.15	24
O=C(O)CCC(=O)Nc1nncs1
→ -0.35	0.11
O=C(O)CCc1nc2c(cnn2-c2ccccc2)c(=O)[nH]1
→ -0.5	·
Cc1ccc(C2C3=C(CC(C)(C)CC3=O)N(CCN3CCOCC3)C3=C2C(=O)CC(C)(C)C3)cc1
→ -0.2	2.3
O=C(Nc1ccc(CN2CCCCC2)cc1)c1c(F)c(F)c(F)c(F)c1F
→ -0.35	-0.065
Cc1nc(C)c(I)c(Oc2ccc(C#N)cc2)n1
→ 2.2	-0.16
CC(Cc1ccccc1)NC=O (stereo not given)
→ 0.25	0.52
O=c1c2ccccc2nc(CSc2ncnc3ccccc23)n1-c1ccccc1
→ 0.05	0.26
Cn1c(CCCCN)nc2ccccc21
→ 1.6	·
O=C(CCC(=O)Nc1ccc(S(=O)(=O)N2CCCCC2)cc1)Nc1ccc(S(=O)(=O)N2CCCCC2)cc1
→ 0.7	0.045
Cc1cccc(C)c1NC(=S)NCc1ccncc1
→ ·	0.9
COc1ccc(C2(C(=O)NCc3ccco3)CCOCC2)cc1
→ 0.15	-0.42
O=C(Cn1cnc2ccccc21)OCC(=O)N1CCc2ccccc21
→ 0.05	-1
COCCN(Cc1ccco1)C(=O)c1cc2c(s1)-c1ccccc1OC2
→ -0.05	101

# Continuation:
# Every second line gives: AID504770	CapD inh
ONC(=Nc1ccc(Cl)cc1)c1ncc(C(F)(F)F)cc1Cl
→ ·	0.4
O=C1CCCc2nc(Nc3nc4ccccc4s3)ncc21
→ 2.2	-0.34
O=C(/C=C/c1ccco1)Nc1ccc(CN2CCOCC2)cc1
→ 2.2	4.3
Cc1ccc(CSc2nc3ccncc3n2CC(=O)N(C)c2ccccc2)cc1
→ -0.55	0.82
OC1(/C=C/CN2CCCCC2)CCCCC1
→ -0.85	0.21
O=C1c2ccccc2C(=O)C1c1ccc(F)cc1
→ -0.25	-0.18
CCOC(=O)C1=C(C)NC(C)=C(C(=O)OCC)C1C1=COCCO1
→ -0.4	·
CC(C)(C)n1[nH]nnc1=S
→ ·	-0.75
CCCN(CCC)C(=O)C1=C(C)C(=O)OC12CCC(C)CC2 (stereo not given)
→ -1.3	0.12
Cc1cc(C(=O)COC(=O)CC2Sc3ccccc3NC2=O)c(C)n1C (stereo not given)
→ -0.05	·
CCOC(=O)c1sc2sc(C(=O)OCC)c(C)c2c1C
→ -0.8	-0.03
Nc1ccc(-c2nnn(CC(=O)N3CCCC3)n2)cc1
→ 0.3	·
O=S(=O)(c1ccccc1)n1ccc(-c2ccc(C#Cc3ccccc3)cc2)n1
→ 0.25	-0.67
CCCCOC(=O)c1ccc(NCN2C(=O)S/C(=C\c3ccc(O)c(OC)c3)C2=O)cc1
→ ·	-0.65
O=C(COn1nnc2ccccc21)N1CCC(Cc2ccccc2)CC1
→ 1.5	·
O=C(Cn1nnc(-c2ccc3c(c2)OCO3)n1)N1CCOCC1
→ 1.2	0.29
CCOC(=O)N/N=C/c1cccc(O)c1
→ ·	-0.38
O=C(O)C1CCC(Cn2c(SCc3ccccc3Cl)nc3ccsc3c2=O)CC1 (stereo not given)
→ 0.4	-1.4
CC(=O)OC(C)C[N+](C)(C)C (stereo not given)
→ 0.5	0.01
Cc1ccc(NC2=CC(c3cccc([N+](=O)[O-])c3)N(c3ccc(C)cc3)C2=O)cc1 (stereo not given)
→ ·	-0.27

# (cont.)
Structure | AID504770 | CapD inh
O=C(Nc1ccccc1N1CCCC1)c1ccccc1 | 0.05 | 0.18
CCOC(=O)C1=C(CN2CCn3cccc3C2C)NC(=O)NC1c1ccc(Cl)cc1 (stereo not given) | 0.85 | -0.31
CC(=O)Nc1ccc(S(=O)(=O)NCC2CCC(C(=O)N3CCOCC3)CC2)cc1 (stereo not given) | 0.2 | -0.47
C(=N/n1cnc2ccccc21)/c1ccccc1 | 0.05 | -0.69
CN(c1ccc(Cl)cc1)S(=O)(=O)c1ccc2[nH]cc(C(=O)N3CCC4(CC3)OCCO4)c(=O)c2c1 | · | 4.1
COC(=O)Cn1cc(/C=C(/C#N)C(=O)NCc2ccccc2)c2ccccc21 | 0.7 | 0.41
Cc1nc2ccccc2nc1SCC(=O)NC1CCCCC1 | -0.6 | 0.11
COc1ccc(C2C=C(c3ccc(Br)cc3)Nc3nc4ccccc4n32)cc1OC (stereo not given) | · | 0.99

# (more compounds)
Structure | AID504770 | CapD inh
CC(C)(C)c1ccc(OCCCC(=O)N2CCOCC2)cc1 | -0.8 | ·
Cc1ccccc1Nc1nc(N)nc(COc2ccc(F)cc2C(=O)c2cc(C#N)c(=O)n(C(C)C)c2)n1 | 0.2 | ·
CCOC(=O)CC1C(=O)NCCN1S(=O)(=O)c1ccc(OC)cc1 (stereo not given) | · | 0.07
COc1ccc(-c2cc(C(=O)N3CCOCC3)c3ccccc3n2)cc1 | · | 57
CC1(C)NC(C(=O)O)C(C)(C)S1 (stereo not given) | 1.5 | 0.92
O=[N+]([O-])c1cc(NS(=O)(=O)c2cc(Cl)ccc2Cl)ccc1F | · | -0.075
CCOC(=O)n1c(=O)n(Cc2ccc(Cl)c(Cl)c2)c2ccccc21 | · | -0.15
O=S(=O)(NC1c2ccccc2CC1O)c1ccc(Br)s1 (stereo not given) | · | -0.045

# Other structures.
Structure | AID504770 | CapD inh
CCC(=O)N(c1nnc(SCC(=O)NC(=O)c2ccccc2OC)s1)C1CC1 | -0.5 | ·
COCCOC(=O)C1=C(C)OC(N)=C(C#N)C1c1ccc(Br)cc1 (stereo not given) | · | 1.6
CC(C)C12CN3CC(C(C)C)(CN(C1)C31C(=O)Nc3ccccc31)C2=O (stereo not given) | · | -0.56
COC(=O)C1=C(C)N(C)C(=O)C12c1ccccc1-c1oc(N)nc12 (stereo not given) | -0.05 | -0.025
CCCCNc1nc(SCC(=O)NCC2CCCO2)nc2ccccc12 (stereo not given) | · | 1.1
CCCn1c(CO)nc2ccccc21 | -0.8 | 0.51
CC(C)c1cc(NS(=O)(=O)c2ccccc2)c(O)c(C(C)C)c1 | 0.4 | -0.47
O=C1CC(c2ccc(Cl)cc2)c2cc(Br)c3ccccc3c2N1 (stereo not given) | · | -0.47

# (further entries)
Structure | AID504770 | CapD inh
Cc1cccc(N2CCN(Cc3ccco3)CC2)c1C | -0.25 | -0.61
COC(=O)c1cc2c(=O)n3ccccc3nc2n(C(C)C)c1=N | 1.3 | 74
CN(C)S(=O)(=O)c1ccc(NC(=O)CSc2ncccn2)cc1 | 1.6 | ·
COc1ccccc1N1C(=O)c2ccccc2NC12C(=O)N(Cc1ccccc1Cl)c1ccccc12 (stereo not given) | · | -0.01
Cc1cccc(N(C)S(=O)(=O)c2ccc3c(c2)OCC(=O)N3)c1 | -0.2 | 0.56
CCN(CC)c1ccc(C(=O)OCC(=O)N2CCc3ccccc32)cc1 | -2.1 | 0.33
O=C1CSC(=NCc2ccccc2)N1 | 1.1 | 0.1
OC(COc1ccc(Br)cc1)CN1CCCN(c2nc3ccc(Cl)cc3s2)CC1 (stereo not given) | -0.55 | 0.015

# The listing continues:
Structure | AID504770 | CapD inh
COC(=O)c1ccc(CSc2nc(N3CCOCC3)c3c(c2C#N)CC(C)(C)OC3)o1 | · | 0.01
COC(=O)C1=C(C(=O)OC)SC(=C2C(=S)C(C)(C)N(C(=O)CN3C(=O)C4CCCCC4C3=O)c3ccccc32)S1 (stereo not given) | · | -0.34
NC1=NC(=O)C(CC(=O)Nc2ccccc2)S1 (stereo not given) | 0.55 | -1.5
Clc1ccc(Cn2cccc2C2=NCCO2)cc1 | -1.1 | -0.43
CC1CCC(C(C)C)C(OCC[N+](C)(C)C)C1 (stereo not given) | -0.2 | -0.37
Cc1cccc(NC(=O)c2ccc(=O)[nH]c2)c1 | -1.2 | -0.58
CN(C)N=Nc1ccc(S(=O)(=O)NC(=O)Cc2ccccc2)cc1 | 0.75 | -1.4
COc1ccc(CN(C)Cn2c(=S)oc3ccccc32)cc1 | 0.7 | ·

# Continuation.
Structure | AID504770 | CapD inh
O=C(O)/C=N/NC(=O)c1ccccc1 | 0.75 | 0.23
CCOC(=O)CSCc1cn2c(C)cc(C)nc2n1 | 1.3 | ·
CC1CCCN(C(=S)NC(=O)C2CC2)C1 (stereo not given) | -1.2 | ·
CCN(CC)CCCNc1nc(Cl)nc(Nc2ccc(F)cc2F)n1 | -0.75 | -0.03
O=C(CCNC(=O)c1ccc(Br)cc1)Nc1nc2ccccc2[nH]1 | 0.8 | ·
Cc1ccc(Nc2nc3nonc3nc2Nc2c(C)n(C)n(-c3ccccc3)c2=O)c(C)c1 | · | 0.19
CC(C)n1c(=S)[nH]c2scc(-c3cccs3)c2c1=O | -0.2 | ·
C/S(=N\C(=O)Nc1ccc(Cl)cc1)c1sc(Cl)c2c1C(=O)CCC2 (stereo not given) | -0.45 | 0.12

# Next section.
Structure | AID504770 | CapD inh
Cn1nnnc1SCC(=O)Nc1ccc2nc(SCC(=O)NC3CCCCC3)sc2c1 | · | 0.56
O=C(OCCc1ccccc1F)N1CCN(c2ccccc2Cl)CC1 | · | -0.89
O=C1NC(=Nc2ccccc2Br)SC1(CO)CO | -0.15 | -0.32
O=C(Nc1ccccc1)c1ccc(C#Cc2ccccc2)o1 | 0.75 | 0.47
O=C(CSc1nc2c([nH]c3ccccc32)c(=O)n1-c1cccc(Cl)c1)N1CCCCCC1 | 0.2 | -0.14
Cc1[nH]c(=O)c(C#N)c(C)c1CCC(=O)NC1(C)CCS(=O)(=O)C1 (stereo not given) | -0.1 | ·
CCCCn1c(N)c(N(CC(C)C)C(=O)COc2ccc(F)cc2)c(=O)[nH]c1=O | -0.1 | ·
CCCCC1SC(/N=C/c2ccc(Cl)cc2)=NNC1=O (stereo not given) | -0.65 | -1.8

# Next part
Structure | AID504770 | CapD inh
O=C(NNC(=O)c1snnc1-c1ccccc1)OCCc1ccc(Br)cc1 | · | -0.72
Cc1ccc(/C(O)=C2\C(=O)C(=O)N(CCN(C)C)C2c2ccc(C)cc2)cc1 (stereo not given) | · | -0.24
CC(C)=CCC(C#N)(CC=C(C)C)C(=O)O | · | -0.11
CC(C(=O)N/C(N)=N/c1nc2ccccc2s1)N1C(=O)c2ccccc2C1=O (stereo not given) | 0.6 | ·
O=C(Nc1cccc(O)c1)c1cccc(-n2cnnc2)c1 | 0.1 | 0.48
CC1=C(c2ccccc2)[N+](=O)C(C)(C)N1[O-] | -0.6 | -1.6
Cc1nc(SCC2=C(C(=O)OC(C)C)C(c3ccccc3Cl)C(C#N)=C(N)O2)c(C#N)c(C)c1C (stereo not given) | · | 0.16
CCOC(=O)C1=C(C)NC2=C(C(=O)C(C(=O)OCC)C(c3ccccc3OC)C2)C1c1ccccc1OC (stereo not given) | · | 14

# Four entries from above, reformatted:
molecule: O=C(NNC(=O)c1snnc1-c1ccccc1)OCCc1ccc(Br)cc1
  AID504770: ·
  CapD inh: -0.72
molecule: Cc1ccc(/C(O)=C2\C(=O)C(=O)N(CCN(C)C)C2c2ccc(C)cc2)cc1 (stereo not given)
  AID504770: ·
  CapD inh: -0.24
molecule: CC(C)=CCC(C#N)(CC=C(C)C)C(=O)O
  AID504770: ·
  CapD inh: -0.11
molecule: CC(C(=O)N/C(N)=N/c1nc2ccccc2s1)N1C(=O)c2ccccc2C1=O (stereo not given)
  AID504770: 0.6
  CapD inh: ·

# Bioassay records (PubChem)
